GIV-Gai inh = blocks GIV peptide binding to rat Galpha-i3 | P08753 | Galpha-i3/FITC-GIV peptide fluorescence polarization, 90 min; active compounds read low; scaled: aluminum fluoride 0%, vehicle 100% | percent of control (FP), % (concentration not given with the values) | 210,000 compounds, 0.42% hits;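 active means replicate mean at 85% of control or lower, very high polarization wells dropped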;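 further: wells of about 15 µL received 100 nL stock; the first replicate is given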
Target sequence (P08753 whole entry, looked up): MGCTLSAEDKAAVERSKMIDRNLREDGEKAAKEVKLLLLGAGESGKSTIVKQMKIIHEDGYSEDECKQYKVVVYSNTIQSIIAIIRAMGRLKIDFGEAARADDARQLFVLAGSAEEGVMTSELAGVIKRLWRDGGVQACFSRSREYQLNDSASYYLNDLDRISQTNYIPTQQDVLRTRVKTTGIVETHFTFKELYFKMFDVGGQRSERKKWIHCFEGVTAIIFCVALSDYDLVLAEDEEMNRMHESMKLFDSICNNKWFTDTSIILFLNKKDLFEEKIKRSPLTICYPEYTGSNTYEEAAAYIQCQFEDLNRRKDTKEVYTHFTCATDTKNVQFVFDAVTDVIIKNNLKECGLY
HCMV UL50-53 inh = inhibitors of HCMV UL50-UL53 nuclear egress complex interaction; 190,000 compounds, 0.15% hits; AID 1918969; inhibition, % (test concentration not listed); HTRF UL50-UL53 interaction, normalized percent inhibition;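 active means both replicates at 50% or more, plus weaker picks with an unusually low signal ratio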;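 further: stock transfer was 100 nL into about 20 µL; 0% = negative control wells and 100% = wells with untagged competitor protein; inactives centre near -12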
Sa growth inh = inhibitors of Staphylococcus aureus growth at 42 °C; S. aureus RN4220 growth, OD600, 20 h; active compounds read low; relative growth, % (concentration not given with the values); 170,000 compounds, 0.53% hits; AID 720641;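 active means growth at 42 °C up to 50% and 20 or more points under that at 30 °C, or under 10% at both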;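 further: 300 nL library stock went into each well; scaled to the means of positive and negative controls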
Sa growth inh second temp = also measured in Sa growth inh; calls as there; relative growth, %; measured here: growth at 30 °C;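 optical density after 20 h as mean of two plates; 100% = untreated growth and lower means inhibition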
The depositor's hits bear a star; . = not tested or not shown; & = joins results of further samples.

The first two records as a preview:
nr	Structure	GIV-Gai inh	HCMV UL50-53 inh	Sa growth inh	Sa growth inh second temp
1	COc1ccc(/C=C/C(=O)N2CCC(c3nc4ccccc4o3)CC2)cc1OC	99	-55	111	76
2	CCOC(=O)c1c(C)[nH]c(C)c1S(=O)(=O)N1CCN(c2ccc(Cl)cc2)CC1	101	.	110	79

Main list, previewed entries included:
nr	Structure	GIV-Gai inh	HCMV UL50-53 inh	Sa growth inh	Sa growth inh second temp
1	COc1ccc(/C=C/C(=O)N2CCC(c3nc4ccccc4o3)CC2)cc1OC	99	-55	111	76
2	CCOC(=O)c1c(C)[nH]c(C)c1S(=O)(=O)N1CCN(c2ccc(Cl)cc2)CC1	101	.	110	79
3	O=C(CCC(=O)N1CCCCc2ccccc21)NC1CCCC1	100	-2	102	96
4	Cc1ccc(-n2nc(N3CCCN(C(=O)C4CCC4)CC3)ccc2=O)cc1	107	-14	.	.
5	Cc1cc(NC(=O)Nc2csc3c2CCCC3)ccc1Br	97	8	97	97
6	CSc1ccc(CCNC(=O)CCc2c(C)nc3c(c(C)nn3-c3ccccc3)c2C)cc1	99	-13	106	89
7	c1coc(-c2ccnc3nc(-n4cccc4)nn23)c1	101	-52	.	.
8	CC(C)c1nnc2c3c4c(sc3ncn12)CCCC4	100	-3	91	94
9	Fc1ccc(Nc2nc(SCc3ccccc3F)nc3ccccc23)cc1	105	.	82	84
10	C=CCNc1nc(OC(C(F)(F)F)C(F)(F)F)nc(N2CCOCC2)n1	99	-17	.	.
11	CC1=C(C(=O)Nc2ccccc2C)C(c2ccccn2)n2nc(SCc3ccccc3F)nc2N1 (stereo not drawn)	106	0	105	96
12	Cc1ccccc1OCCSc1nnc(-c2ccc3c(c2)OCO3)o1	.	-10	105	98
13	COC(=O)c1c(NC(=O)COc2c(C)ccc(C)c2C)sc2c1CCC(C)C2 (stereo not drawn)	102	-4	98	92
14	Cc1cccc(OCC(=O)N(Cc2ccc(C(C)C)cc2)Cc2ccco2)c1C	101	-34	98	83
15	COc1ccc2c(c1)c1c(c(=O)n(-c3cccc(C)c3)c(=O)n1CC(=O)N1CCCC1)n2C	108	.	96	88
16	CCOC(=O)CC(NC(=O)N1CCC(CN2CCC(C)CC2)CC1)c1ccccc1 (stereo not drawn)	101	.	96	86
17	O=C(Nc1ccc(OC(F)(F)F)cc1)OCCc1csc2ccccc12	97	-31	99	87
18	S=c1[nH]nc(CNc2ccc(I)cc2)n1-c1ccccc1	103	-5	85	78
19	COc1cccc(CNC(=O)CCCN2C(=O)CCn3nc(-c4cccn4C)cc32)c1	106	.	89	75
20	O=C(O)CCCN1C(=O)/C(=C2\SC(=S)N(CCCC(=O)O)C2=O)SC1=S	94	15	84	72

Given with one line to a screen: entries from further up
[17] O=C(Nc1ccc(OC(F)(F)F)cc1)OCCc1csc2ccccc12
[18] S=c1[nH]nc(CNc2ccc(I)cc2)n1-c1ccccc1
[19] COc1cccc(CNC(=O)CCCN2C(=O)CCn3nc(-c4cccn4C)cc32)c1

entry no.,17,18,19
GIV-Gai inh,97,103,106
HCMV UL50-53 inh,-31,-5,.
Sa growth inh,99,85,89
Sa growth inh second temp,87,78,75

Continued.
nr	Structure	GIV-Gai inh	HCMV UL50-53 inh	Sa growth inh	Sa growth inh second temp
21	CCOc1cc(S(=O)(=O)n2ccnc2)ccc1Br	106	-4	104	96
22	CCOC(=O)c1[nH]c(C)c(S(=O)(=O)Nc2ccc(C)cn2)c1C	108	-30	.	.
23	COc1ccc(C2=C(C(C)=O)Sc3nnc(-c4ccc(C)cc4)n3N2C(C)=O)cc1OC	97	.	128	82
24	CC(C)C(=O)c1sc(Nc2ccc(Br)cc2)nc1N	116	19	.	.
25	c1cnc2sc3c(N4CCOCC4)ncnc3c2c1	102	-38	94	86
26	OCCNc1nc(N2CCOCC2)nc(N2CCOCC2)n1	104	-4	95	91
27	CCc1ccc(N2C(=O)CNC2=S)cc1	107	-18	113	80
28	O=C(NCCc1ccccc1)c1cc(-c2ccccc2)nc2ccccc12	97	.	104	85
29	Cc1ccc2oc(=O)c3cnn(CC(=O)N4CCCc5ccccc54)c3c2c1	103	-12	108	96
30	CC(C)CCNc1ncnc2onc(-c3ccc(Cl)cc3)c12	103	-24	92	87
31	NC/C=C/C(=O)O	104	-23	.	.
32	N#Cc1c(-c2cccnc2)cc2c(c1N)c(=O)oc1ccccc12	95	-12	108	87
33	S=c1[nH]nc(CSc2nc3ccccc3s2)o1	101	-8	76	58
34	CCn1nc(C)cc1C(=O)NN	104	-12	118	94
35	Cc1ccc2c(COC(=O)/C=C/c3ccc(Br)o3)cc(=O)oc2c1	.	-51	73	73
36	CC1CCC(NC(=O)Cn2ncc3c2-c2ccccc2OC3)CC1 (stereo not drawn)	96	2	104	96
37	Fc1ccc(CNC(c2ccc(F)cc2)c2nnc(-c3ccccc3)o2)cc1 (stereo not drawn)	102	-25	83	82
38	CCS(=O)(=O)NCC(c1cccnc1)N1CCN(c2ccccc2)CC1 (stereo not drawn)	106	-40	95	85
39	O=C(CC1CCN(C(=O)C2CCCCC2)CC1)NCCN1CCOCC1	100	-29	.	.
40	COc1ccc(-c2noc(CCC(=O)N3CCCC3)n2)cc1	104	-3	125	86

Reformatted with one line to a screen: entries from further up
(19) COc1cccc(CNC(=O)CCCN2C(=O)CCn3nc(-c4cccn4C)cc32)c1
(36) CC1CCC(NC(=O)Cn2ncc3c2-c2ccccc2OC3)CC1 (stereo not drawn)
(5) Cc1cc(NC(=O)Nc2csc3c2CCCC3)ccc1Br
(15) COc1ccc2c(c1)c1c(c(=O)n(-c3cccc(C)c3)c(=O)n1CC(=O)N1CCCC1)n2C
(3) O=C(CCC(=O)N1CCCCc2ccccc21)NC1CCCC1

Screen / compound no.	19	36	5	15	3
GIV-Gai inh	106	96	97	108	100
HCMV UL50-53 inh	.	2	8	.	-2
Sa growth inh	89	104	97	96	102
Sa growth inh second temp	75	96	97	88	96

(cont.)
nr	Structure	GIV-Gai inh	HCMV UL50-53 inh	Sa growth inh	Sa growth inh second temp
41	CC/C(O)=C(\C#N)c1nc2ccccc2n1C	104	-10	96	82
42	CCOCCCNC(=O)c1cc2c(=O)n3ccccc3nc2s1	101	-93	108	90
43	C=CCOC(=O)COc1cc2oc(=O)c3c(c2cc1Cl)CCC3	106	-15	102	89
44	NS(=O)(=O)c1ccc(NC(=O)CCC(=O)c2ccc(F)cc2)cc1	.	-9	111	89
45	CN(C(=O)COc1ccc2ccc(=O)oc2c1)c1ccccc1	.	4	106	92
46	COC(=O)c1ccccc1N=Cc1sc(=S)[nH]c1O	.	6&-31	102	77
47	O=C(Cn1c(C(F)(F)F)nc2ccccc21)OCc1nnc(-c2ccc(Cl)cc2)o1	.	20	103	93
48	NS(=O)(=O)c1ccc(N/C=C/C(=O)c2ccccc2)cc1	106	-46	106	114
49	O=S(=O)(c1ccc(Br)cc1)c1nc(-c2ccco2)oc1SCc1ccccc1Cl	109	15	108	116
50	Cc1ccccc1C(=O)Oc1cc(-c2ccc3c(c2)OCO3)cc(=O)c2c(C)oc(C)c12	108&112	-1&-18	106	87
51	O=S(=O)(Nc1nc2ccccc2nc1NCCC1=CCCCC1)c1ccccc1	103	.	110	78
52	CN=c1scc(-c2ccc(OC)cc2)n1/N=C/c1cc(Br)c(O)c(OC)c1	.	-21	57	46
53	COc1cccc(-c2nc3ccccc3c(=O)n2NC(=O)c2cc(OC)ccc2Br)c1	98	0	.	.
54	O=C1NCCCC1c1n[nH]c(=S)n1Cc1ccccc1 (stereo not drawn)	102	-36	88	86
55	Cc1cc(C(=O)Cn2cnc3ccsc3c2=O)c(C)n1CCc1ccc(F)cc1	.	-12	84	98
56	O=C(O)C1CCN(C(=O)c2ccccc2)CC1	.	1	95	97
57	Clc1cccc(-n2ncc3c(NCCc4ccccc4)ncnc32)c1	104	.	143	97
58	Cc1cccc(NC(=O)CN2C(=O)CC(c3ccccc3)=Nc3ccccc32)c1	100	-20	.	.
59	CN1CCN(Cc2nc3ccccc3c(=O)n2CC#N)CC1	.	-3	83	91
60	CCc1ccc(N(C(=O)c2ccco2)C(C(=O)NC2CCCC2)c2ccncc2)cc1 (stereo not drawn)	102	-28	91	81
61	CCCCn1c(=O)c2oc3ccccc3c2n(CC(=O)Nc2cccc(Cl)c2)c1=O	96	.	91	87
62	CCOc1ccc(-c2nonc2NC(=O)C(C)Oc2cccc(C)c2C)cc1C (stereo not drawn)	107	-20	.	.
63	CC(=O)OCCNc1nc(-c2ccccc2)nc2ccccc12	99	-5	84	83
64	CCc1ccc(NC(=O)Cn2nnc(-c3ccccc3N)n2)cc1	102	5	100	92
65	CC(CCc1ccccc1)NC(=O)CCc1cn(Cc2ccc(F)cc2)c2ccccc12 (stereo not drawn)	103	.	102	85
66	Cc1cc2oc(C(=O)Nc3sc4c(c3C(=O)NCC3CCCO3)CCCC4)cc(=O)c2cc1C (stereo not drawn)	100	4	79	91
67	Cc1cc2c(cc1S(=O)(=O)NCc1ccc(F)cc1)n(C)c(=O)c(=O)n2C	102	.	78	82
68	O=C1C(=O)N(C2CCNCC2)CCN1Cc1ccccc1	106	.	100	100
69	CCOC(=O)c1cn2nc(-c3ccc(OC)cc3)cc2nc1C1CCN(C(=O)OC(C)(C)C)CC1	105	.	77	90
70	NNC(=O)CCN1CCN(c2ccccc2)CC1	.	-23	107	98
71	Cc1c(C(=O)N2CCN(c3ncccn3)CC2)oc2ccc(Cl)cc12	.	13	94	100
72	CCCCOc1ccc(C2c3c(-c4ccccc4O)n[nH]c3C(=O)N2Cc2ccncc2)cc1OC (stereo not drawn)	105	-20	76	68
73	COc1ccc(-c2cn3c(n2)sc2cc(C(=O)NCCc4ccccc4)ccc23)cc1	113	.	79	79
74	CC1=CC(C)C(/C=N/N=C(N)N)C(C)C1 (stereo not drawn)	99	-21	77	43
75	CCOC(=O)c1cnc2c(ccc3ccccc32)c1Nc1ccccc1OC	111	-10	102	91
76	CCOc1ccc(/C=C2\N=C(c3c(-c4ccccc4)noc3C)OC2=O)c(OC(C)=O)c1	104	3	.	.
77	CCOC(=O)c1c(CN(CC)CC)oc2ccc(O)cc12	105	-7	78	83
78	Cc1cc2nc(CSc3nnc(-c4cccc(Cl)c4)o3)cc(=O)n2o1	101	-21	.	.
79	CCn1c(SC)nnc1C1CCN(CC(=O)Nc2ccccc2N2CCOCC2)CC1	98	-7	99	82
80	c1coc(-c2nnc3n2C2(CCCC2)Cc2ccccc2-3)c1	102	-7	102	91

High-throughput results deposited in PubChem BioAssay by ICCB-Longwood Screening Facility, Harvard Medical School.
